# Measles inh – inhibitors of measles virus growth in infected cells; z-score (test concentration not listed); hit rate 0.1% among 33,000; infected Vero cells, GFP fluorescence, 64 h; active compounds read low;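 active = z-score under -3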;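 also: score is relative to mean and SD of the compound wells of a plate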
# Active calls of the source: *. Only part of the results is shown (hit frequency here may not be typical).
Measles inh | SMILES
0.57 | Cc1nc2c(C(=O)N3CCOCC3)cnn2c(C)c1Cc1ccc(Cl)cc1
-0.96 | Cc1nc2c(sc3nc4c(cc32)COC(C)(C)C4)c(=O)n1C
0.01 | Cc1ccc(-c2noc(CN3CCC(Cc4ccccc4)CC3)n2)cc1
-1.13 | Cc1ccc(C(=O)COC(=O)CN2C(=O)c3ccccc3C2=O)cc1[N+](=O)[O-]
0.51 | Cc1ccc(NC(=O)C2CCCN(S(=O)(=O)c3cccc4nsnc34)C2)cc1F (centres undefined)
0.5 | CCOC(=O)CSc1ncnc2c1oc1ccccc12
-0.55 | Cc1ccc(-n2nc3c(c2NC(=O)C2CCCCC2)CS(=O)(=O)C3)c(C)c1
-0.24 | COC(=O)CCNc1n[nH]c(=O)[nH]c1=O
0.58 | COc1cccc(C(=O)Nc2ccc(S(=O)(=O)Nc3nc(C)cc(C)n3)cc2)c1
0.94 | Clc1ccc2c(c1)C1CC(c3ccccc3)=NN1CO2 (centres undefined)
2.64 | COc1ccc2nc3sc(C(=O)N(C)Cc4ccccc4)cc3cc2c1
-0.11 | O=C(NCc1cccs1)c1ccc2c(c1)N(Cc1ccccc1Cl)C(=O)CS2
1.63 | N#Cc1c(-c2ccco2)cc(C2CC2)nc1SCC(=O)c1ccccc1
0.14 | CCOC(=O)CNC(=O)c1sc2ncnc(N3CCCCC3C)c2c1C (centres undefined)
2.72 | COc1ccc(-c2nc3ccc([N+](=O)[O-])cc3nc2-c2ccc(OC)cc2)cc1
0.23 | CCC(=O)N1CCc2cc(S(=O)(=O)CCC(=O)N3CCN(c4cccc(OC)c4)CC3)ccc21
-0.75 | CC1=C(C(=O)OC2CCCCCC2)C(c2cccc(C)c2)NC(=O)N1 (centres undefined)
-0.65 | O=C(NC1CC1)c1ccc(CSCc2ccccc2Cl)o1
0.21 | O=C(CN1CCN(c2ccc(Cl)cc2)CC1)c1ccc2c(c1)OCO2
0.36 | CCOC(=O)c1cc(C(=O)OCC)c(N)s1
0.11 | COc1ccccc1N1CCN(C(=O)c2cn(C3CCCC3)c(=O)c3c2c2ccccc2n3C)CC1
0.53 | COc1ccccc1CNC(=O)c1nn(-c2ccc(C)cc2)c(=O)c2c1c1ccccc1n2C
1 | CCc1ccc(C2C(C(=O)OC)=CN(CC3CCCO3)C=C2C(=O)OC)cc1 (centres undefined)
2.86 | CCn1c2c(c3cc([N+](=O)[O-])ccc31)CCCC2=O
-0.19 | O=C(CN1C(=O)CSc2ccc(S(=O)(=O)N3CCOCC3)cc21)NCC1CCCO1 (centres undefined)
-0.43 | C=C(C)CSc1nc2c(c(=O)[nH]c(=O)n2C)n1CCCCC
-0.04 | COCCOC(=O)C1=C(C)NC2=C(C(=O)CC(c3ccccc3)C2)C1c1ccc(F)cc1 (centres undefined)
0.85 | O=C(CSc1nc2ccccc2c(=O)n1Cc1ccco1)NCc1ccco1
0.44 | CCN(CCNS(=O)(=O)c1cc(Br)cc2c1N(C(C)=O)CC2)c1ccccc1
-1.69 | COc1ccc(C2(c3ccc(OC(C)=O)cc3OC(C)=O)CC(c3ccccc3)NC(=S)N2)cc1 (centres undefined)
-0.69 | CC(=O)c1cccc(NC(=O)c2ccc(N3CC4CC(C3)c3cccc(=O)n3C4)c(NC(=O)c3ccc(C(C)(C)C)cc3)c2)c1 (centres undefined)
0.16 | C=CCn1c(=S)[nH]c2cc(C(=O)N3CCN(c4ccccc4)CC3)ccc2c1=O
-1.27 | CCOC(=O)C1C(c2ccc(Cl)cc2)NC(=O)NC1(O)C(F)(F)F (centres undefined)
2.04 | COc1ccc(NC(=O)c2cc(-c3ccco3)on2)c(OC)c1
-0.13 | COc1ccc(C(=O)Nc2cccc3c(NC(=O)c4ccc(OC)cc4)cccc23)cc1
-0.39 | Cc1cccc2sc(NC(=O)CN(C)S(=O)(=O)c3cccs3)nc12

# Sorted by value in Measles inh (falling): three of the compounds above.
Measles inh | SMILES
2.04 | COc1ccc(NC(=O)c2cc(-c3ccco3)on2)c(OC)c1
0.85 | O=C(CSc1nc2ccccc2c(=O)n1Cc1ccco1)NCc1ccco1
-0.13 | COc1ccc(C(=O)Nc2cccc3c(NC(=O)c4ccc(OC)cc4)cccc23)cc1

# Next compounds follow:
Measles inh | SMILES
0.3 | CC1CCCCC1NC(=O)c1ccc(CS(=O)(=O)Cc2ccc(Cl)cc2)o1 (centres undefined)
-0.91 | O=C1c2ccccc2NC(c2ccc(Cl)cc2)N1Cc1ccccc1 (centres undefined)
-0.22 | CCCOC(=O)c1ccc2c(c1)C(=O)N(c1ccc(C)cc1)C2=O
0.06 | CN(C)c1ccc(-c2n(C)c3ccccc3[n+]2C)cc1
-0.03 | Cc1ccc(CSCc2ccc(C(=O)NCCc3ccccc3)o2)cc1
0.77 | CCOC(=O)c1ccccc1NC(=O)c1ccc(CN2CCc3ccccc3C2)cc1
1.22 | COc1ccc(N2CCN(C(=O)Cn3c(=O)[nH]c4ccsc4c3=O)CC2)cc1
-1.2 | CC(C)(C)c1ccc2c(c1)N(CC(=O)N1CCOCC1)C(=O)CO2
2.17 | Cc1cccc(C)c1OCC(O)CN1CCCCC1 (centres undefined)
-0.48 | CCOC(=O)c1cnc2ccc(C(=O)OC)cc2c1Nc1ccccc1C
-0.67 | COc1ccc(C(=O)n2nc3c(c2-c2ccc(OC)cc2)COC(C)(C)C3)cc1
-1.96 | O=[N+]([O-])c1cccc(S(=O)(=O)N(Cc2ccco2)CC2CCCO2)c1 (centres undefined)
0.35 | COc1ccccc1NC(=O)C1=C(C)Nc2ncnn2C1c1cc(Br)ccc1OC (centres undefined)
1.39 | Cc1noc(C)c1S(=O)(=O)N(CC(=O)N(C)c1ccc(Br)cc1)c1ccc2c(c1)OCO2
0.61 | COc1cccc2cc(CC(=O)c3ccc(C)cc3)c(=O)oc12
-0.61 | COc1ccccc1N(CC(=O)Nc1cc(C)ccc1C)S(C)(=O)=O
-0.27 | O=C(NCCC1=CCCCC1)c1ccc2c(=O)n(Cc3cccc(Br)c3)c(=S)[nH]c2c1
-0.46 | COc1ccc(C=Nc2ccc(-c3nc4ccccc4s3)cc2)cc1OC
0.95 | COC(=O)c1ccc2nc(-c3ccccc3)c(-c3ccccc3)nc2c1
-0.66 | CCOC(=O)c1nc(Cl)c(Cl)c(Nc2ccc(N(CC)CC)cc2)c1Cl
0.02 | COc1ccc(OC)c(-n2c(=S)[nH]c3cc(C(=O)N4CCN(c5ccccc5)CC4)ccc3c2=O)c1
1.14 | CCc1ccccc1NC(=O)c1c(NC(=O)c2ccco2)sc2c1CCC2
-0.15 | COc1ccccc1C(=O)C(=O)c1ccccc1
0.21 | O=C1c2ccc(Oc3cccc([N+](=O)[O-])c3)cc2C(=O)N1c1cccc2ccccc12
-1.17 | O=C(C1=C(O)C(=O)N(CCN2CCOCC2)C1c1ccccc1)c1cccs1 (centres undefined)
-1.48 | CCCc1[nH]c(C(=S)SCC)cc1CC
-0.14 | Cc1[nH]nc2oc(=O)c(CCO)c(C)c12
-0.18 | CCOc1ccccc1C(=O)Nc1nc2ccccc2s1
-1.1 | Cc1ccccc1Cn1nc(C)c(NC(=O)c2noc3c2CC(C(C)(C)C)CC3)c1C (centres undefined)
0.79 | Cc1ccc(CNS(=O)(=O)c2ccc([N+](=O)[O-])cc2)cc1
-1.07 | CSc1cccc(Nc2cc(C(=O)NC3CCCCC3)c3ccccc3n2)c1
0.12 | Cc1ccc(C2CC(=O)CC(c3ccccc3)S2)cc1 (centres undefined)
-0.3 | CCCCOCCOC(=O)c1cc(-c2ccccc2)nc2ccc(C)cc12
0.2 | O=C(CC1Sc2ccccc2NC1=O)Nc1ccccc1NC(=O)CC1Sc2ccccc2NC1=O (centres undefined)
-0.62 | Cc1ccc(C2C=C(c3ccc(I)cc3)Nc3nnnn32)cc1 (centres undefined)
-0.62 | Cc1ccc(-n2c(C)nc3c(cnn3-c3ccccc3Cl)c2=O)cc1

# Nothing new here: entries from further up.
Measles inh | SMILES
-1.07 | CSc1cccc(Nc2cc(C(=O)NC3CCCCC3)c3ccccc3n2)c1
0.12 | Cc1ccc(C2CC(=O)CC(c3ccccc3)S2)cc1 (centres undefined)
-0.3 | CCCCOCCOC(=O)c1cc(-c2ccccc2)nc2ccc(C)cc12

# Continued:
Measles inh | SMILES
-0.71 | Cc1nc(N2CCC(C)CC2)c2c(C)c(C(=O)Nc3ccc(C)c(F)c3)sc2n1
-0.19 | COc1cc(C(=O)NCc2ccccn2)c([N+](=O)[O-])cc1OC
-0.13 | CC(=O)NC1=CC(=O)c2nonc2C1=O
-0.52 | Cc1cc(C)c(C#N)c(Oc2cccc(NC(=O)CC(C)C)c2)n1
-0.61 | O=c1c2ccccc2n(Cc2ccccc2Cl)c(=O)n1C1CCCC1
-0.48 | COc1cccc(C(=O)Nc2cc3ccccc3cc2NC(=O)c2cccc(OC)c2)c1
-0.71 | COc1ccccc1OCC(=O)Nc1ccncc1
0.82 | O=C(CC1Sc2ccccc2NC1=O)Nc1ccc(C(F)(F)F)cc1 (centres undefined)
-0.55 | CCOc1ccc(Sc2cc(C(=O)NCC3CCCO3)c3ccccc3n2)cc1 (centres undefined)
0.95 | O=C(O)CCCN1CCS(=O)CC1
-0.03 | COc1ccccc1N1CCN(C(=O)c2ccc3nc4ccccc4c(=O)n3c2)CC1
1.05 | CC(C)c1ccc(C(=O)Nc2ccc3oc(-c4cccnc4)nc3c2)cc1
0.64 | CCOC(=O)c1cc2c(=O)n3ccccc3nc2n(CC(C)C)c1=NC(=O)c1cc(OC)cc(OC)c1
2.05 | CCCCC(=O)c1ccc(O)cc1
-0.71 | CCCOC(=O)C1=C(C)NC2=C(C(=O)CC(C)(C)C2)C1c1ccc(O)c(OCC)c1 (centres undefined)
-0.46 | CC1=C(C(=O)OCCc2ccccc2)C(c2ccsc2)C2=C(CC(C)(C)CC2=O)N1 (centres undefined)
-0.24 | C=CCN(C(=O)Cc1ccc(OC)cc1)c1nnc(-c2ccc(Cl)cc2)s1
0.11 | CCCCCn1c2ccccc2c2nc3cc(F)ccc3nc21
0.56 | Cc1ccccc1N(C)C(=O)Cc1c(C(=O)O)[nH]c2ccc(Cl)cc12
0.2 | Cc1nc2c(C(=O)NCc3ccc(F)cc3)cnn2c(C)c1Cc1ccccc1
-0.77 | COc1cccc(-c2nn(C)c3sc(C(=O)Nc4ccccc4N4CCN(C)CC4)cc23)c1
0.88 | O=c1[nH]c(=S)[nH]c2scc(-c3ccc(Br)cc3)c12
-0.27 | O=C(CCNS(=O)(=O)c1cccs1)N1CCc2ccccc2C1
-0.12 | Cc1sc2nc(CCCCCN3C(=O)c4cccc5cccc(c45)C3=O)n(CCO)c(=O)c2c1C

# Entries listed so far containing a furan ring, fused or not, in the order listed:
Measles inh | SMILES
0.5 | CCOC(=O)CSc1ncnc2c1oc1ccccc12
1.63 | N#Cc1c(-c2ccco2)cc(C2CC2)nc1SCC(=O)c1ccccc1
-0.65 | O=C(NC1CC1)c1ccc(CSCc2ccccc2Cl)o1
0.85 | O=C(CSc1nc2ccccc2c(=O)n1Cc1ccco1)NCc1ccco1
2.04 | COc1ccc(NC(=O)c2cc(-c3ccco3)on2)c(OC)c1
0.3 | CC1CCCCC1NC(=O)c1ccc(CS(=O)(=O)Cc2ccc(Cl)cc2)o1 (centres undefined)
-0.03 | Cc1ccc(CSCc2ccc(C(=O)NCCc3ccccc3)o2)cc1
-1.96 | O=[N+]([O-])c1cccc(S(=O)(=O)N(Cc2ccco2)CC2CCCO2)c1 (centres undefined)
1.14 | CCc1ccccc1NC(=O)c1c(NC(=O)c2ccco2)sc2c1CCC2

# More results:
Measles inh | SMILES
0.45 | CCC(=O)N1c2ccc(S(=O)(=O)NC(C)CC)cc2CC1C (centres undefined)
0.44 | Cc1ccc(CSc2nnc3c(n2)OC(c2ccco2)Nc2ccccc2-3)cc1 (centres undefined)
1.15 | Cc1c(NC(=O)c2cc3ccccc3o2)c(=O)n(-c2ccccc2)n1C
0.36 | Cc1cc(N2CCCCC2)nc2ccc(NC(=O)CCC(=O)N3CCN(Cc4ccccc4)CC3)cc12
-1.92 | CCOC(=O)C1=C(C)Nc2nnnn2C1c1ccc(C(=O)OC)cc1 (centres undefined)
0.31 | CC(=O)C1C(=O)CC(C)(O)C(C(C)=O)C1c1ccc(O)cc1 (centres undefined)
-0.7 | O=C(Nc1cc(C(F)(F)F)ccc1Cl)c1cc(-c2cccc(Cl)c2)on1
1.65 | COCCCNC(=O)c1cc2c(=O)n3ccccc3nc2s1
0.57 | CCCOC(=O)C1=C(C)NC2=C(C(=O)CC(c3ccccc3)C2)C1c1ccc(O)c(OCC)c1 (centres undefined)
1.12 | O=C(Nc1cc(S(=O)(=O)c2ccccc2)c(O)c2ccccc12)c1ccc(Cl)cc1
0.79 | CCC(=O)N1c2ccccc2-c2nnc(SC)nc2OC1c1cc(Cl)cc(OC)c1OC (centres undefined)
0.44 | COc1cccc2cc(C(=O)Nc3nccs3)c(=Nc3cccc(Cl)c3)oc12
-0.65 | CC1CCN(S(=O)(=O)c2ccc(C(C)(C)C)cc2)CC1
-0.72 | CCCOc1ccc(C2NC(=O)CCC2[N+](=O)[O-])cc1 (centres undefined)
-0.08 | COc1cc(N)c(Cl)cc1C(=O)O
-0.4 | Cc1ccc(C(C)C)c(OCC(=O)NCCC23CC4CC(CC(C4)C2)C3)c1
-0.44 | C=CCNC(=O)c1ccc2c(=O)n(CCC)c(=S)[nH]c2c1
0.09 | O=c1c2ccccc2nc2c3c4c(sc3ncn12)CCCC4
0.34 | FC(F)(F)c1ccccc1CN1CCN(Cc2ccncc2)CC1
-0.34 | CN1CCN(C2CC(=O)N(CCc3ccccc3)C2=O)CC1 (centres undefined)
-0.54 | CCOC(=O)c1sc2ncnc(Nc3cc(F)ccc3C)c2c1C
-0.76 | Cc1c(C(=O)NCCCN2CCCC2=O)oc2ccc(S(=O)(=O)N3CC(C)CC(C)C3)cc12 (centres undefined)
-0.49 | COc1ccc2cc3cc(C(=O)Nc4ccccc4OC)oc3nc2c1
-1.69 | COc1ccc(-n2nc3c(c2NC(=O)c2ccc4c(c2)OCO4)CS(=O)C3)cc1 (centres undefined)
-0.52 | C=CCn1c(SCC(=O)c2cccs2)nc2sc3c(c2c1=O)CCCC3
-0.55 | CCc1ccc2oc(-c3cccc(NC(=O)c4ccccc4F)c3)nc2c1
0.77 | CCCNc1ncnc2c1c(-c1ccccc1)cn2-c1ccccc1
0.35 | CC(=O)N1CCCc2cc(S(=O)(=O)NC(C(=O)NC3CCCCCC3)C(C)C)ccc21 (centres undefined)
-1 | O=c1c(-c2cc3ccccc3o2)coc2cc(O)ccc12

# High-throughput results (PubChem BioAssay)
